VDR inhibitor – vitamin D3 receptor (human) inhibition. AID 504847. actives 0.93% (n = 400,000). Potency, µM, inactives show max response, negative = inhibition, hits mostly inhibitors. VDR-SRC2-3 peptide fluorescence polarization, 2 h; active = well fitted inhibition curve with a large enough effect; inconclusive = small, poorly fitted or top-dose-only effect, or another doubt; inactive = no such curve, though single readings can be large or run the other way; also: series mostly up to about 120 µM
Target sequence (P11473 whole entry, looked up): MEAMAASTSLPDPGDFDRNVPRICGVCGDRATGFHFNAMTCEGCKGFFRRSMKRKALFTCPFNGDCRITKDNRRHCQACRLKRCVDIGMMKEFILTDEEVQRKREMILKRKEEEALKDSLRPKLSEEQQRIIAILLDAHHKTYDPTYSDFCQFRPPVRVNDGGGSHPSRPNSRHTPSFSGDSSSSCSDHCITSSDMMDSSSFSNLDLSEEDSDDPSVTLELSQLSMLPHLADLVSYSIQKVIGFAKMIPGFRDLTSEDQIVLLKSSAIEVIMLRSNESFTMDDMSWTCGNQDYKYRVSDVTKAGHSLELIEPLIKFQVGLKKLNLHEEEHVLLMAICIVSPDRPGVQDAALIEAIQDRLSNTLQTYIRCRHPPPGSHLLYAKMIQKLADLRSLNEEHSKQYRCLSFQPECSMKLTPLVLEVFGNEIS
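Signal is fluorescence polarization, reporting how far test compounds block the interaction of VDR with the SRC2-3 coregulator peptide after a 2 h room-temperature incubation.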
* marks the source's active call; other numbers are inactive results; ? = inconclusive; & = joins results of further samples. % is scaled to controls: 0 for no effect and ±100 for the full control effect; potency is read from the fitted curve at half-maximal effect. These rows are one share of the data; count on the stated rates, not on these rows.

| canonical_smiles | VDR inhibitor |
| --- | --- |
| O=C(N/N=C/c1ccc(O)c2ccccc12)c1cccnc1 | -2% |
| Cc1ccc(C)c(-n2cc[nH]c2=S)c1 | -17% |
| COc1ccc(Cl)cc1NS(=O)(=O)c1cccc(C(=O)NCCCN2CCCC2=O)c1 | 13% |
| CC(C)COc1ccc(C(=O)N2CCC(c3nc4ccccc4s3)CC2)cc1 | -7% |
| CCNC(=O)c1c(NC(=O)C2COc3ccccc3O2)sc2c1CCCC2 (centres undefined) | 1% |
| O=C(CSc1ccc2ccccc2c1)NCCCN1CCCC1=O | -4% |
| Cc1ccc(Cn2ncc3c(N4CCN(C5CCCC5)CC4)ncnc32)cc1 | -3% |
| CCCc1cc(C(=O)Nc2cccc(Cl)c2)no1 | -6% |
| Cc1nc(Oc2ccccc2)c2ccccc2n1 | -11% |
| Cc1ccccc1Cn1ccc(=NCc2ccccc2)cc1 | 8% |
| CC(C)Cc1cc(CN2CCC(CO)(Cc3ccccc3)CC2)[nH]n1 | 21% |
| CCN(CC)CCCN1C(=O)C(O)=C(C(=O)c2sc(C)nc2C)C1c1ccco1 (centres undefined) | 13% |
| CCOC(=O)N1CCN(C(=O)c2ccccc2N(C)S(C)(=O)=O)CC1 | 13% |
| c1csc(-c2nnc(Cc3cccc4ccccc34)o2)c1 | -10% |
| CCSCc1nnc(SCC(=O)Nc2nc3ccccc3s2)n1C | 0% |
| Cc1ccc(NC(=O)c2ccc(Br)o2)cc1S(=O)(=O)N(C)C | -9% |
| COC(=O)C1(C)Nc2ccccc2C(=O)N1c1ccccc1C (centres undefined) | 12% |
| Cc1ccc2nc(/C(C#N)=C\c3ccc(Oc4ccc([N+](=O)[O-])cn4)cc3)[nH]c2c1 | 5% |
| COc1ccc(Oc2ncc3ncc(=O)n(Cc4ccc(F)cc4)c3n2)cc1 | -6% |
| COC(=O)c1sccc1NC(=O)Nc1ccc(OC)c(OC)c1 | -9% |
| Cc1ccc(/C=C2/Sc3ccc(C(=O)N4CCN(c5ccccn5)CC4)cc3NC2=O)cc1 | -2% |
| CC(=O)c1c(C)n([O-])c2ccccc2[n+]1=O | 1% |
| COc1ccc(C)cc1NC(=O)C1CCCN(c2ncnc3onc(C)c23)C1 (centres undefined) | -1% |
| Cc1ccn2c(=O)cc(COc3ccc(NC(=O)COc4ccccc4)cc3)nc2c1 | 10% |
| Cc1ccc(/C=C/c2onc(C)c2S(=O)(=O)N2CCC(C(=O)N3CCN(c4cc(C)ccc4C)CC3)CC2)cc1 | 4% |
| CC(=O)c1ccc(-n2cc(-c3ccc(C(C)(C)C)cc3)[n+]3c2SCCC3)cc1 | 4% |
| CN(C)C(CNC(=O)c1ccc(-c2ccccc2)cc1)c1ccccc1 (centres undefined) | 10% |
| Cc1ccc(N(CC(O)COCc2ccco2)S(=O)(=O)c2ccc(C)cc2)cc1 (centres undefined) | ? |
| CCCn1c(N)c(C(=O)COC(=O)COc2ccc(Cl)c(C)c2)c(=O)n(C)c1=O | 3% |
| O=C(O)c1ccc(/C=N/N2CCN(Cc3cccc4ccccc34)CC2)cc1 | 10% |
| COc1ccc(-c2cc(CS(=O)(=O)c3ccccc3)on2)cc1 | 2% |
| CCCn1nc([N+](=O)[O-])c(C(C#N)c2nc3ccccc3o2)c(Cl)c1=O (centres undefined) | ? |
| COc1cc(NC(=O)Cn2c(=O)n(C(C)C)c(=O)c3oc4ccccc4c32)cc(OC)c1 | 8% |
| O=C(CCS(=O)(=O)c1ccc(Cl)cc1)Nc1nnc(-c2cccs2)o1 | 2% |
| O=[N+]([O-])c1ccc2c(c1)C(O)n1nc(-c3ccc(Cl)cc3Cl)nc1S2 (centres undefined) | 17% |
| Cc1ccc(S(=O)(=O)Nc2cccc(-n3cnnn3)c2)cc1C | -14% |
| CCOc1ccc(NC(=O)CN(C)c2ccc(S(=O)(=O)N3CCOCC3)cn2)cc1OCC | -1% |
| Cc1ccccc1OCc1nnc(SCC(=O)Nc2ccc3nc(SCC(=O)NC(C)(C)C)sc3c2)n1C | 10% |
| CC(C)CNC(=O)COc1ccc2c3c(c(=O)oc2c1)CCC3 | 8% |
| Cc1ccc(S(=O)(=O)N2CCCC2CNC(=O)C(=O)NCCN2CCOCC2)cc1 (centres undefined) | 0% |

Sorted by number of heavy atoms (descending): 3 of the compounds above.
| canonical_smiles | VDR inhibitor |
| --- | --- |
| Cc1ccccc1OCc1nnc(SCC(=O)Nc2ccc3nc(SCC(=O)NC(C)(C)C)sc3c2)n1C | 10% |
| Cc1ccc(S(=O)(=O)N2CCCC2CNC(=O)C(=O)NCCN2CCOCC2)cc1 (centres undefined) | 0% |
| O=[N+]([O-])c1ccc2c(c1)C(O)n1nc(-c3ccc(Cl)cc3Cl)nc1S2 (centres undefined) | 17% |

Two records picked at random from those above:
| canonical_smiles | VDR inhibitor |
| --- | --- |
| Cc1ccccc1OCc1nnc(SCC(=O)Nc2ccc3nc(SCC(=O)NC(C)(C)C)sc3c2)n1C | 10% |
| CCOc1ccc(NC(=O)CN(C)c2ccc(S(=O)(=O)N3CCOCC3)cn2)cc1OCC | -1% |

Next part:
| canonical_smiles | VDR inhibitor |
| --- | --- |
| O=C(COC(=O)Cn1cnc2ccccc21)NCCC1=CCCCC1 | -9% |
| CCNc1c(NS(=O)(=O)c2ccc(Br)s2)c(=O)oc2ccccc12 | 7% |
| Cc1cc(=S)cc(C)n1CCO | ? |
| COc1cc(CNc2ccc3[nH]c(=O)[nH]c3c2)cc(Br)c1OCc1ccc(F)cc1 | -5%&7% |
| CN(CC(=O)Nc1ccc(Cl)cc1)C(=O)Cc1c(F)cccc1Cl | -3% |
| CN(CCC(=O)Nc1ccc2c(c1)OCO2)Cc1ccccc1 | 3% |
| Cc1nnc(SCCN2CCOCC2)c2nn(-c3ccccc3F)c(C)c12 | -11% |
| CC(c1nccs1)N(C)C(=O)CCc1nnc(CCc2ccccc2)o1 (centres undefined) | 10% |
| CCCCCCOc1ccc(N2C(=O)CC(N3CCN(CCN=CC4C(=O)CC(C)(C)CC4=O)CC3)C2=O)cc1 (centres undefined) | 0% |
| Cc1cc(F)ccc1NS(=O)(=O)c1cccc2nsnc12 | 0% |
| CCOc1ccccc1NC(=O)NC1CCN(CC(=O)Nc2ccc3c(c2)OCCO3)CC1 | 5% |
| CC(=O)NC(NC(=S)N1CCCCCC1)C(Cl)(Cl)Cl (centres undefined) | -10% |
| CN1/C(=C\C(=O)c2cccnc2)Sc2ccccc21 | 8% |
| COCCCNC(=O)CSC1=Nc2ccccc2C2=NC(Cc3c[nH]c4ccccc34)C(=O)N12 (centres undefined) | -15% |
| CCOc1cc(-c2nnn(CC(=O)N3CCCCC3)n2)ccc1OC | -20% |
| O=C(COc1ccc(Cl)cc1)NCCCNC(=O)c1cnccn1 | -18% |

Further results follow:
SMILES,VDR inhibitor
Cc1ccc(N=Cc2ccc(O)cc2O)cc1F,-4%
Cc1cc2c(cc1S(=O)(=O)CCC(=O)N1CCC(C)CC1)OCC(=O)N2,-1%
CNC(=O)NC(=S)NC(=O)c1ccccc1Cl,-5%
CCOc1ccc(C(=O)Nc2ccccc2CC)cc1[N+](=O)[O-],-14%
CCN1/C(=C2\C(=O)N(C)C(=S)N2c2ccccc2)C=Cc2ccccc21,9%
NC(N)=N/N=C/c1ccc(OCc2ccccc2)cc1,12%
C[C@]1(CO)CCC[C@@]2(C)C1CC[C@@H](CO)[C@@H]2CCc1ccoc1 (some centres undefined),-6%
Cc1ccc(S(=O)(=O)N(CC(=O)N/N=C/c2ccco2)Cc2ccccc2)cc1,2%
NC(=O)C1CC(=O)N(c2ccc(OCC(=O)NCc3ccccc3)cc2)C1 (centres undefined),-2%
CC(C)Oc1ccccc1NC(=O)CSc1nc2ccccc2c(=O)n1C,-5%

Among those listed so far, these have a nitro group on carbon.
SMILES,VDR inhibitor
Cc1ccc2nc(/C(C#N)=C\c3ccc(Oc4ccc([N+](=O)[O-])cn4)cc3)[nH]c2c1,5%
CCCn1nc([N+](=O)[O-])c(C(C#N)c2nc3ccccc3o2)c(Cl)c1=O (centres undefined),?
O=[N+]([O-])c1ccc2c(c1)C(O)n1nc(-c3ccc(Cl)cc3Cl)nc1S2 (centres undefined),17%
CCOc1ccc(C(=O)Nc2ccccc2CC)cc1[N+](=O)[O-],-14%

Some of the entries above, set out differently.
> Cc1ccc(S(=O)(=O)N(CC(=O)N/N=C/c2ccco2)Cc2ccccc2)cc1
  VDR inhibitor: 2%
> NC(=O)C1CC(=O)N(c2ccc(OCC(=O)NCc3ccccc3)cc2)C1 (centres undefined)
  VDR inhibitor: -2%
> Cc1cc2c(cc1S(=O)(=O)CCC(=O)N1CCC(C)CC1)OCC(=O)N2
  VDR inhibitor: -1%

Further compounds:
SMILES,VDR inhibitor
O=C(NCCC1CCCCN1S(=O)(=O)c1ccc(F)cc1)C(=O)NCCN1CCOCC1 (centres undefined),10%
O=C(CCC1N=C2c3ccccc3N=C(SCc3cccc(F)c3)N2C1=O)NCc1cccs1 (centres undefined),6%
CCOC(=O)NC(=O)CSc1ccc(C)cc1C,-4%
O=C(c1cccnc1)N1CCC(Oc2ccc(C(=O)N3CCCCO3)cc2)CC1,9%
c1ccc2[nH]c(NC3=NCCC3)nc2c1,3%
COCCNc1c(-c2ccc(OC)c(OC)c2)nc2ccc(Cl)cn12,8%
COc1ccc(C(=O)C2CCCN(Cc3cc(Cl)ccc3O)C2)c(OC)c1 (centres undefined),21%
COC(=O)CCCNC(=O)c1ccc(OS(=O)(=O)c2cc([N+](=O)[O-])ccc2C)cc1,-11%
CCOC(=O)c1cnc2ccccc2c1Nc1cccc(OC)c1,-4%
O=C(NCc1ccccc1)C(Cc1ccccc1)N1C(=O)C2C3CCC(C3)C2C1=O (centres undefined),0%
CCCn1c(=O)c2c(nc3n2CCCN3Cc2ccccc2)n(C)c1=O,0%
O=C(C1CCC(=O)N(C2CC2)C1)N1CCC(Oc2cccc(F)c2)CC1 (centres undefined),11%
COc1cc(Cl)ccc1OCc1cc(C(=O)N(C)Cc2nnc(C)o2)no1,-18%
Cc1ccc(NS(=O)(=O)c2ccc(-c3ccc(=O)[nH]n3)o2)cc1Cl,4%
Cc1nonc1NC(=O)CSc1nc(C2CCCCC2)nc2ccccc12,-2%
COc1cccc(C(=O)Nc2ccc(C(=O)c3ccccc3)cc2)c1,-7%
Cc1ccc(OCc2ccc(C(=O)NN)o2)cc1C,1%
Cc1cccc(Cn2c(=O)n(Cc3ccccc3)c(=O)c3c2c2cc(C)ccc2n3C)c1,17%
COc1ccc(N(C)C(=O)c2cn(C3CCCCC3)c(=O)c3c2c2ccccc2n3C)cc1,-9%
COc1ccc(C)cc1S(=O)(=O)N(CC(=O)N1CCOCC1)c1cc(C)cc(C)c1,-8%
Cc1ccc(CNC(=O)c2csc3c2CCCCC3)cc1,6%
CC1=C(C(=O)Nc2ccccc2)C(c2ccccn2)n2nc(SCc3ccccc3)nc2N1 (centres undefined),-18%
O=[N+]([O-])c1cccnc1N1CCC(c2cc(-c3cccc(C(F)(F)F)c3)n[nH]2)CC1,-10%
COc1ccc(C)cc1NC(=O)CNC(c1ccccc1)c1ccc(C)cc1 (centres undefined),12%
CN1CCN(CCc2nc3cc(NC(=O)COc4ccccc4)ccc3n2C)CC1,4%
COc1ccc(-c2cc(C(=O)N3CCN(c4ncccn4)CC3)c3ccccc3n2)cc1OC,6%
OCC1CCCCN1C(=S)Nc1ccc(Cl)cc1Cl (centres undefined),-27%
COc1ccccc1NS(=O)(=O)c1cc(NC(=O)c2ccc3c(c2)OCCO3)ccc1C,-9%
O=C(OCC(=O)N1CCCc2ccccc21)c1ccc(F)c(S(=O)(=O)N2CCOCC2)c1,5%
Cn1c(COc2ccc(Cl)cc2)nnc1SCC(=O)NC1CC1,-14%
Cc1ccc(S(=O)(=O)C2C(=O)N(C)C3(C)CC2c2ccccc2O3)cc1C (centres undefined),-19%
Cc1ccc(-c2ccc(C(=O)NCc3ccc(Cl)cc3)o2)c2ccccc12,?
N#CC1(C#N)OC12CCS(=O)(=O)c1ccccc12 (centres undefined),?
CSc1nnc2c(n1)OC(C)N(C(=O)c1ccccc1)c1ccccc1-2 (centres undefined),12%
O=C(c1cccc([N+](=O)[O-])c1)N1CCCC(C(=O)N2CCN(c3ccccc3)CC2)C1 (centres undefined),-13%
COCCNC(=S)N1CCC(NC(=O)Nc2ccc(C)cc2)CC1,-16%
Cn1c(=O)c2c(nc(NCCc3ccccc3)n2Cc2ccc(Cl)cc2)n(C)c1=O,-13%
CC1(C)CC(=O)C=C(Nc2ccc(C(=O)O)cc2)C1,-13%
COc1cc(C(=O)NCCC2=CCCCC2)ccc1OCc1c(C)noc1C,6%
CCc1nnc(NC(=O)C2CCCN2C(=O)Nc2ccc(Cl)cc2)s1 (centres undefined),3%
Nc1ncnc2c1ncn2[C@@H]1O[C@H](CNS(=O)(=O)CCCCl)[C@@H](O)[C@H]1O,-3%
Cc1ccccc1-c1nn(-c2ccccc2)cc1C(=O)NCC(c1ccco1)N1CCCC1 (centres undefined),-15%
CCNC(=O)c1cc2c(=O)n3cccc(C)c3nc2n(Cc2ccc(C)cc2)c1=N,14%
COc1ccc(NC(=O)Nc2ccc3c(c2)C(=O)N([C@H](C)CO)C[C@H](C)[C@@H](CN(C)C(=O)NC(C)C)O3)cc1,12%
Cc1ccc(C(=O)Nc2ccc(N3CCOCC3)cc2N2CCOCC2)cc1,8%
CC(C)c1ccc(NC(=S)NC2CCCCCC2)cc1,-5%
CC(C)[C@H](NC(=O)[C@H](Cc1ccccc1)n1c(=O)[nH]c2ccccc2c1=O)C(=O)N1CCC[C@H]1C(=O)O,3%
CCc1cc(=O)oc2cc(C)cc(OC(C)C(=O)NCc3ccccn3)c12 (centres undefined),-11%
Cc1ccccc1C(=O)c1cccn1CC(=O)NCc1ccc(Cl)cc1,-2%&5%
Cc1ccc(-c2onc(C)c2C)cc1S(=O)(=O)N1c2ccccc2CC1C (centres undefined),0%
CC[C@]12C(=O)N(C)C[C@H]([C@@H]3C(=O)N(Cc4ccccc4)C(=O)[C@@H]31)N2C(=O)c1ccc(F)cc1,-4%
O=C(COC(=O)c1ccccc1NCCO)Nc1ccc(S(=O)(=O)NC2=NCCCCC2)cc1,-14%
CCN(CC(=O)Nc1cc(Cl)ccc1C)C(=O)CCc1nc2ccccc2c(=O)[nH]1,26%
